KCNQ2 enhance = enhances the rat KCNQ2 potassium channel | O88943 | CHO-K1 KCNQ2, FluxOR thallium flux fluorescence; hits give high values | B-score at 10 µM | 310,000 tested, 0.54% active | AID 2239;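 active means fluorescence ratio B-score at least 3 SD of library B-scores, with initial fluorescence B-score within 3 SD, cut at about 5.3 in these data; same plate scores as AID 2156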;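 further: B-score of peak minus minimum over baseline fluorescence ratio after K+ and Tl+ stimulus; positive B-score means potentiation of KCNQ2 with more thallium influx and brighter signal; only the inactives scoring about 0 or higher are listed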
Target sequence (O88943 whole entry, looked up): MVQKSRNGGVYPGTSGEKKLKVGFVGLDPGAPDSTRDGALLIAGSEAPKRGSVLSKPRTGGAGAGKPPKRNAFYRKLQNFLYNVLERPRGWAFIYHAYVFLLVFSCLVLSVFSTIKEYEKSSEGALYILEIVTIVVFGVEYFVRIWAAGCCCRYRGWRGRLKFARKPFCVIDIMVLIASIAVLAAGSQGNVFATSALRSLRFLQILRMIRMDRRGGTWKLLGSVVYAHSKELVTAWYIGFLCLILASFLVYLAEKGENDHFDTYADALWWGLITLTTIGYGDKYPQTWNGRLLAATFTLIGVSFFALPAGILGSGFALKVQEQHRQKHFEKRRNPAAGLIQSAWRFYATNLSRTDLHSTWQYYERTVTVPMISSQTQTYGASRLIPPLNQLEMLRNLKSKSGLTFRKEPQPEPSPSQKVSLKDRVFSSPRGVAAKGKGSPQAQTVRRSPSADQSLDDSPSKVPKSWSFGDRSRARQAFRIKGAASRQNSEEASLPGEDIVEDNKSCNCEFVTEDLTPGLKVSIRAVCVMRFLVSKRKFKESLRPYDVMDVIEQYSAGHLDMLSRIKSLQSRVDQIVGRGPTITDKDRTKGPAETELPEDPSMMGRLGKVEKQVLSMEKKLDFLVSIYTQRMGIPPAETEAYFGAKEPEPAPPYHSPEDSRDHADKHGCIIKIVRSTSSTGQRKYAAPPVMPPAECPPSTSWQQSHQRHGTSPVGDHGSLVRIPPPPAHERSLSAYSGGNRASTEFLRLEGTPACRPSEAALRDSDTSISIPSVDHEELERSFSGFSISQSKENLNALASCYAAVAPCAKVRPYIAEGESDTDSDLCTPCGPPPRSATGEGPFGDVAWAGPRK
KCNQ2 enhance baseline = also measured in KCNQ2 enhance; calls as there; B-score; compound at 10 µM; measured here: initial fluorescence intensity artifact check;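 brightness before thallium and not channel activity; 0 = typical well and far values either way flag optical interference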
Numbers without * were called inactive; . = no result given. This is a subset; the hit share may differ from the screen's.

KCNQ2 enhance	KCNQ2 enhance baseline	SMILES
1.6	-0.06	O=S1(=O)CCC(NS(=O)(=O)c2ccc3ccccc3c2)C1 (stereo unspecified)
0.58	-0.54	CC(=O)c1cccc(NCC(=O)c2ccc(C)c([N+](=O)[O-])c2)c1
0.01	-3.2	CCOC(=O)C[C@H]1c2cc(F)ccc2S(=O)(=O)N1C(C)(C)C
2	3.5	O=C1N=C(N2CCOCC2)S/C1=C\c1cccnc1
0.27	-0.17	O=C1C=C(NC2CCCCC2)CCC1
1.8	-2	COc1ccc(S(=O)(=O)N2CCOCC2)cc1NS(=O)(=O)/C=C/c1ccccc1
0.01	-0.33	COc1ccccc1NC(=S)NNC(=O)c1ccc(Cl)cc1Cl
0.18	-1.5	COc1ccc(F)cc1CN1CCN(CC(=O)N2CCc3ccccc32)CC1
0.01	-0.87	CCC(=O)NC(=S)Nc1ccc(S(=O)(=O)NC(C)=O)cc1
0.49	-0.57	CCOC(=O)c1cc2n(n1)C(C(F)(F)F)CC(C)N2 (stereo unspecified)
0.02	-0.36	O=C1NCCCCC1NS(=O)(=O)c1ccc(F)c(F)c1 (stereo unspecified)
2.1	-2.9	c1ccc(-c2noc(CSc3nc4ccccc4o3)n2)cc1
1.8	0.09	Cn1c(C(=O)OCC(=O)NCC2CCCO2)cc2sccc21 (stereo unspecified)
0.18	-1.3	C=CCn1c(SCc2ccc([N+](=O)[O-])cc2)nnc1C(C)NC(=O)c1ccccc1 (stereo unspecified)
1.6	-0.42	COC(=O)c1c(N2C(=O)[C@H]3[C@@H](C2=O)[C@]2(C(=O)Nc4ccc(C)cc42)N2CCC[C@@H]32)sc(C)c1C
0.75	1.4	COc1ccc(N(C(=O)c2snc(C(N)=O)c2N)C(C(=O)NCC2CCCO2)c2ccc(C)o2)cc1OC (stereo unspecified)
0.81	-0.71	COc1cccc(OC)c1-c1nn2c(-c3cc(-c4ccccc4)n[nH]3)nnc2s1
0.71	1.4	O=C(c1ccc(Cl)cc1)N1CCCOC1
1.1	0.05	CCOc1ccc(C(C)NC(=O)C2CCC2)cc1 (stereo unspecified)
4	-1.3	O=C(NNc1ccc([N+](=O)[O-])cc1[N+](=O)[O-])C1C2CCCCC21 (stereo unspecified)
1.7	-0.28	Cc1ccc(Nc2nc(-c3ccc(C)cc3)c(CC(=O)O)s2)cc1
0.04	-1.1	CC(=O)/C=C/c1ccccc1Oc1c(F)c(F)nc(F)c1F
4.2	-0.03	O=C(Nc1cccc(S(=O)(=O)N2CCCCC2)c1)c1ccc2ncsc2c1
0.01	-0.42	Cc1cc(=O)[nH]c(N=N/C(=N/Nc2ccccc2C)c2ccccc2)n1
1.8	-0.67	CC(=O)Nc1ccc(CC(=O)NCCC(c2ccccc2)c2ccccc2)cc1
0.24	-1.2	Cc1ccc(OCc2cc(C(=O)N3CCC(c4ccccc4Cl)C3)no2)cc1C (stereo unspecified)
0.93	1.2	COc1ccc(NC(=S)Nc2cc(C)ccn2)c(OC)c1
0.71	0.38	O=C(CSc1ccc(-c2ccc(F)cc2)nn1)NC1CCCCC1
0.09	-0.58	CC(C)(C)CC(C)(C)NC(=S)Nc1ccc2nc(-c3ccccn3)c(-c3ccccn3)nc2c1
0.83	-0.64	Cc1cc(C)c(S(=O)(=O)N2CCN(C)CC2)c(C)c1

Copied from the listing, two compounds:
KCNQ2 enhance	KCNQ2 enhance baseline	SMILES
2.1	-2.9	c1ccc(-c2noc(CSc3nc4ccccc4o3)n2)cc1
1.8	0.09	Cn1c(C(=O)OCC(=O)NCC2CCCO2)cc2sccc21 (stereo unspecified)

Structures listed so far containing a Cl atom (three):
KCNQ2 enhance	KCNQ2 enhance baseline	SMILES
0.01	-0.33	COc1ccccc1NC(=S)NNC(=O)c1ccc(Cl)cc1Cl
0.71	1.4	O=C(c1ccc(Cl)cc1)N1CCCOC1
0.24	-1.2	Cc1ccc(OCc2cc(C(=O)N3CCC(c4ccccc4Cl)C3)no2)cc1C (stereo unspecified)

Of the compounds above, these have two or more sulfur atoms:
KCNQ2 enhance	KCNQ2 enhance baseline	SMILES
1.6	-0.06	O=S1(=O)CCC(NS(=O)(=O)c2ccc3ccccc3c2)C1 (stereo unspecified)
1.8	-2	COc1ccc(S(=O)(=O)N2CCOCC2)cc1NS(=O)(=O)/C=C/c1ccccc1
0.01	-0.87	CCC(=O)NC(=S)Nc1ccc(S(=O)(=O)NC(C)=O)cc1
4.2	-0.03	O=C(Nc1cccc(S(=O)(=O)N2CCCCC2)c1)c1ccc2ncsc2c1

More structures
KCNQ2 enhance	KCNQ2 enhance baseline	SMILES
0.02	-0.32	O=C(c1ccco1)N1CCN(S(=O)(=O)c2ccc3c(c2)CCN3C(=O)C2CCC2)CC1
0.99	0.28	CCCCOCCCNC(=O)c1c(-c2ccccc2)noc1C
0.82	-0.01	CCC(=O)Nc1ccc(C(=O)OCc2ccccc2Cl)cc1
0.01	0.43	CC(=O)Nc1ccc(S(=O)(=O)N/N=C/c2cccnc2)cc1
0.19	-0.27	COC(=O)CCCC1=CC2=CC(=O)C(C)(O)C(=O)C2=CO1 (stereo unspecified)
0.05	0.76	Cc1ccc(CSc2nc3nc(C)cc(C)n3n2)cc1
3.1	0.86	Cn1cc(CNC(=O)c2ccc3nc(Cc4ccccc4F)oc3c2)cn1
0.47	-1.4	COC(=O)c1nnn(CC(=O)Nc2cc(Cl)ccc2C)c1C(=O)OC
0.25	-1.3	Cc1csc(NC(=O)c2ccc(C(=O)Nc3nc(C)cs3)cc2)n1
0.05	-0.6	CC(c1ccccc1)N1CCn2c(nc3cc(NS(C)(=O)=O)ccc32)C1 (stereo unspecified)
0.48	-0.06	CC(C)(C)NC(=O)COC(=O)CCC(=O)c1ccc(F)cc1
0.9	-0.37	COc1ccc(CNC(=O)c2ccc(Cn3nc(C)c([N+](=O)[O-])c3C)o2)cc1
0.12	-0.07	COc1ccc(CNc2ncnc3ccccc23)cc1
0.54	0.52	COc1cccc(NS(=O)(=O)c2c(C(=O)N3CCCCCC3)c(C)n(C)c2C)c1
0.31	-0.08	C#CCOc1ccc(C2C(C#N)=C(N)Oc3cc(O)ccc32)cc1 (stereo unspecified)
0.71	-2	COC(=O)[C@@]1(Cc2ccc(F)cc2)[C@H]2c3cc(C(=O)N4CCCC4)n(CCc4ccc(O)c(O)c4)c3C[C@H]2CN1C(=O)c1ccccc1
0.32	0.34	O=C(Cn1nnc2ccccc2c1=O)N1CCCc2ccccc21
0.31	-0.43	COc1ccc(OC)c(C(=O)COC(=O)c2c(OC)cccc2OC)c1
1	-0.34	CCOC(=O)CNC(=O)CSc1ncnc2c1cnn2-c1ccc(OC)cc1
1.8	1.4	COc1ccc(NC(=S)N2CCN(Cc3ccc(C)cc3)CC2)cc1
1.7	0.68	Cc1ccc(Cn2cc(C(=O)NN)c(=O)c3ccc(F)cc32)cc1
1.1	1.2	O=S(=O)(Nc1nc2ccccc2nc1NCC1CCCO1)c1cccs1 (stereo unspecified)
1.9	-0.22	COc1cc(C(C)=O)ccc1O
0.04	-0.34	COC(=O)c1[nH]c2cccc(OC)c2c1NC(=O)CCN1CC(C)CC(C)C1 (stereo unspecified)
2.4	-0.95	Nc1nc(NC(=O)/C=C/c2ccccc2)nn1-c1ccccc1
0.26	-0.49	COc1ccc(NS(=O)(=O)c2cccc(C(=O)N3CCC3)c2)cc1
1.3	-2.1	COc1ccc(CNC(=O)C(C)N2CCN(c3ccc(C(C)=O)cc3)CC2)cc1 (stereo unspecified)
0.44	-0.34	CC1=C(C(=O)Nc2ccc(C(=O)NC(C)c3ccccc3)cc2)SCCO1 (stereo unspecified)
-5.6	.	CCCCN1C(=O)C2Cc3c([nH]c4ccccc34)CN2C1=S (stereo unspecified)
0.19	-0.3	O=C(NNC(=O)c1cc([N+](=O)[O-])ccc1Cl)c1cccs1
0.26	1.5	Cc1cccc(-n2c(CNC(=O)c3ccc(S(=O)(=O)N(C)C)cc3)nnc2SCC(=O)Nc2ccc(F)cc2)c1
0.02	0.23	Cc1nc([N+](=O)[O-])cn1CC(O)c1ccc(Cl)cc1 (stereo unspecified)
0.56	-0.73	CSc1ccccc1C(=O)N1CCN(c2ccc(F)cc2)CC1
0.98	-2	COc1ccc(COCC(O)CN(Cc2ccccc2)C(C)C)cc1OC (stereo unspecified)
0.08	-1.8	CCc1c(C(=O)N2CCCN(C)CC2)csc1C
0.28	-1.7	O=C(CSc1nnc(-c2ccco2)o1)c1ccc(O)cc1O
0.62	0	CC(=O)c1ccc(-c2nnc(CCC(=O)N(C)Cc3cnc4ccccn34)o2)s1
0.21	0.17	OCC[C@@H]1C[C@H](O)[C@@H](O)[C@]2(CCCc3ccccc3O2)O1
0.1	1.7	C=CCOc1ccccc1CN1CCCCCC1
1	0.77	CCOC(=O)CCn1cc(F)c(=O)n(Cc2ccccc2)c1=O
1.8	0.1	COCCN(C(=O)c1ccc(OC2CCN(S(=O)(=O)N(C)C)CC2)cc1)C(C)C
1.5	1.7	c1ccc(-c2ccccc2OCCn2cncn2)cc1
0.07	0.04	O=C(NN1C(=O)c2ccccc2C1=O)C1CC2CCC1C2 (stereo unspecified)
0.15	-1.2	Cc1cccc(CNC(=O)C2CCC(=O)N(Cc3ccccc3F)C2)n1 (stereo unspecified)
1.1	0.01	CCCn1nnnc1SCC(=O)NCc1ccccc1
1.3	-3.2	O=C(NC1=NCCS1)C1CC(=O)N(c2ccc(Cl)cc2)C1 (stereo unspecified)
4.3	1.9	Cc1nn(C)c(Nc2ccc(Br)cc2)c1Br
1	0.13	CCCCCCOc1ccc(C(CC(=O)NC)C(=O)O)cc1 (stereo unspecified)
3.9	1.4	CCOc1cccc(/C=C/c2ccc3cccc(O)c3n2)c1O
0.37	2.7	CCCN1CCc2[nH]c(=S)[nH]c(=O)c2C1
1.2	-1.1	CCC1=Nc2ccc(Br)cc2C(c2ccccc2)N1CC(=O)OC (stereo unspecified)
0.63	-1.6	COCC(=O)Nc1ccc2c(c1)OCO2
0.43	-1.3	Cc1ccc(N2C(=O)N(CC(=O)Nc3ccc(C)cc3C)C(=O)C2C)cc1 (stereo unspecified)
0.34	-0.01	CC(OC(=O)CC1CCCCC1)C(=O)Nc1ccc(F)cc1 (stereo unspecified)
0.08	0.76	O=C(c1cccnc1)N1C2CCC1CC(O)(c1ccc(F)cc1)C2 (stereo unspecified)
0.09	-0.02	Cc1ccc(C)c(NC(=O)Cn2c([N+](=O)[O-])cnc2C)c1
1.3	0.64	Brc1ccc(-c2nn3c(-c4ccco4)nnc3s2)o1
0.08	0.64	Cn1cccc1C1C(C#N)=C(N)OC2=C1C(=O)CCC2 (stereo unspecified)
7.6*	1.4*	CC(C)=CC(=O)Nc1ccc(OCc2ccccc2)cc1
3.1	-0.43	COc1ccc(S(=O)(=O)NCCOc2ccccc2)cc1-n1cnnn1

Additional structures
KCNQ2 enhance	KCNQ2 enhance baseline	SMILES
1.9	-2.4	CCCCOC(=O)c1nc(Cl)c(Cl)c(N)c1Cl
7.7*	0.62*	Cc1ccccc1Nc1nc(N)nc(COC(=O)C2CCCCC2)n1
0.63	0.45	CN1CCN(S(=O)(=O)c2ccc(NC(=S)NC(=O)C(C)(C)C)cc2)CC1
1	-1.2	CS(=O)(=O)c1ccc(Cl)c(C(=O)O)c1
0.97	0.86	COc1ccc(OC)c(C2C(C(=O)Nc3cccnc3)=C(C)NC3=C2C(=O)CCC3)c1 (stereo unspecified)
0.87	-0.42	O=C(NCCN1CCOCC1)c1cc(-c2ccco2)on1
0.33	1.4	CCN(C(=O)CSc1nc(-c2ccccc2)cn1N)c1c(N)n(Cc2ccccc2)c(=O)[nH]c1=O
1.4	0.29	Cc1cc(NC(=O)CSc2nc(N)c(NC(=O)c3ccco3)c(=O)[nH]2)no1
0.04	0.02	O=C(/C=C/Nc1ccc(F)cc1F)c1cccs1
0.31	1.1	Clc1nc(N2CCOCC2)ncc1Br
0.04	0.2	Cc1nn(C)cc1CNC(=O)Nc1ccc(Br)cc1Cl
0.79	-0.47	Cc1ccc(N2C=Nc3ccc(C)c4nc(C)cc2c34)cc1
2.7	2	COc1cc(C(=O)Nc2scc(-c3ccc(C)cc3)c2C(=O)O)cc(OC)c1OC
1.5	0.31	N/C(=N\c1nc2ccccc2o1)NC(=O)c1ccc([N+](=O)[O-])cc1
1.9	0	COc1ccc(S(=O)(=O)N2CCCC2CNC(=O)C(=O)NCc2ccccn2)cc1 (stereo unspecified)
0.52	0.32	COC(=O)[C@@]1(Cc2ccc(OC)cc2)[C@H]2c3cc(C(=O)N4CCCC4)n(CCn4cc([N+](=O)[O-])nc4C)c3C[C@H]2CN1C(=O)c1ccccc1
0.53	-0.85	COc1ccccc1-c1cc(=O)c2c(O)ccc([N+](=O)[O-])c2o1
0.87	-0.55	O=C(Cn1nnc2c(cnn2-c2ccc(F)cc2)c1=O)Nc1ccccc1C(F)(F)F
0.7	-0.61	CCOC(=O)C1CCN(C(=O)COc2ccc(Cl)cc2Cl)CC1
0.01	2.2	c1ccc2c3c([nH]c2c1)-c1[nH]ncc1CC3
0.89	0.9	CSCC[C@H](NC(=O)N1CCn2c1nc1ccccc12)C(=O)NCC1CCCO1 (stereo partly specified)
0.43	0.73	Cc1nccc2oc(=O)c(NC(=O)c3ccc(Cl)cc3)cc12
1.1	1.5	Cc1oc(S(=O)(=O)N2CCCCC2)cc1NC(=O)Nc1ccc(Cl)cc1
0.01	-0.1	CC1(C)c2[nH]c3ccccc3c2C[C@H]2C(=O)N(Cc3ccccc3)C(=O)N21
0.71	4.5	O=C1NCCN1CCN1C(=O)c2ccccc2NC1c1ccccc1 (stereo unspecified)

Some of these compounds in order of their number in KCNQ2 enhance baseline, descending:
KCNQ2 enhance	KCNQ2 enhance baseline	SMILES
1.5	0.31	N/C(=N\c1nc2ccccc2o1)NC(=O)c1ccc([N+](=O)[O-])cc1
1.9	0	COc1ccc(S(=O)(=O)N2CCCC2CNC(=O)C(=O)NCc2ccccn2)cc1 (stereo unspecified)
0.87	-0.55	O=C(Cn1nnc2c(cnn2-c2ccc(F)cc2)c1=O)Nc1ccccc1C(F)(F)F
